Mtb bLac sens: beta-lactam sensitization of Mtb H37Rv, H37Rv | 330,000 compounds, 0.27% hits | M. tuberculosis H37Rv growth with meropenem, percent inhibition; hits of this screen are not shown here | inhibition, % at 25 µM;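 active = about 74% or more and at least 40 points above the plate without the antibiotic, then above 30% in a dose series; inconclusive = first-round hits that could not be retested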;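 note: growth measured after seven days incubation then overnight dye step; 0% = bacteria only wells and 100% = bacteria with antibiotic; twin plates without the antibiotic show which effects depend on it; some results filed as inactive read as strong as hits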
YopH inh: YopH tyrosine phosphatase inhibitors, primary screen, biochemical, fluorescence Ex485/Em525; YopH tyrosine phosphatase [Yersinia enterocolitica]; 140,000 compounds, 0.16% hits; AID 898, 2007; inhibition, %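 (about 10 µM by stock and volumes)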;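 active = inhibition of 50% or more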;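 note: controls were vehicle for no effect and minimum signal wells for full effect; inactives centre near -20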
Mtb growth: M. tuberculosis H37Rv growth inhibitors, H37Rv strain (AID 1626) | inhibition, % at 10 µM, or IC50 in µM where a hit was titrated | M. tuberculosis H37Rv growth inhibition; higher % means a stronger effect | 220,000 compounds, 0.95% hits;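 active = confirmed in a dose series; inconclusive = inhibition above 80% but not taken into the dose series; inactive = below 80% or under 30% at every dose of the series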;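 note: bacteria incubated seven days before Alamar blue readout; 0% = bacteria only wells and 100% = bacteria with antibiotic wells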
Arbovirus inh: antivirals against arbovirus infection, primary screen, cell-based, full library, 10K replicate subset | 200,000 compounds, 0.37% hits | arbovirus infection cell-based antiviral screen | inhibition, % at 10 µM;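 active = inhibition from about 30%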;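 note: bluetongue infection of BSR cells; cell survival read as ATP light after 72 h; 0% = infected wells without compound and 100% = uninfected wells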
RecA splice inh: Mtb RecA intein splicing inhibitors, primary screen, biochemical, fluorescence, HTS | Protein RecA (Mycobacterium tuberculosis (strain ATCC 25618 / H37Rv)), P9WHJ3 | cell-free RecA intein splicing | inhibition, %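 (about 9 µM by stock and volumes)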 | 290,000 compounds, 0.75% hits; in the data active = inhibition above about 30%; inconclusive = no clear call, values can overlap the other calls;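 note: 0% = vehicle wells and 100% = reference inhibitor control wells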
Target sequence (P9WHJ3 whole entry, looked up, canonical isoform): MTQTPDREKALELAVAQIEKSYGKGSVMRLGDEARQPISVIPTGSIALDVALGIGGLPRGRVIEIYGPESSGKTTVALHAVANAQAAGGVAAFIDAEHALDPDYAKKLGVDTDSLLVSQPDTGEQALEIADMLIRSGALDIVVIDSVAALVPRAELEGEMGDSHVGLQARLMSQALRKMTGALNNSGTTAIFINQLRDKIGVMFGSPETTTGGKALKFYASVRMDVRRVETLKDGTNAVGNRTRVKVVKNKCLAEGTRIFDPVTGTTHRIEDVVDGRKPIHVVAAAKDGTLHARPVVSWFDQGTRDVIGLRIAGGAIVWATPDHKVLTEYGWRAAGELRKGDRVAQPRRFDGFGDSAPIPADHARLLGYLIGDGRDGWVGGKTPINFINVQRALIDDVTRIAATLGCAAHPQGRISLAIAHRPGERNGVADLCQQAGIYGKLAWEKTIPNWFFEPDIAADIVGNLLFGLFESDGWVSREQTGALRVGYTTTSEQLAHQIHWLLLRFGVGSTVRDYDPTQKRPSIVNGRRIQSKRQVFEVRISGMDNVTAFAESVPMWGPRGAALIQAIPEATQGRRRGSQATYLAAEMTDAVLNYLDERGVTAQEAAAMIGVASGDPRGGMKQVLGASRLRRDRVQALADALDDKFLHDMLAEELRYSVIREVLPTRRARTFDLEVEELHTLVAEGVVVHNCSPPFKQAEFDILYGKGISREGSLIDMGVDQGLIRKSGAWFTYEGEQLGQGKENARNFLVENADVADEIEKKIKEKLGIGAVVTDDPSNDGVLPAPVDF
Arbovirus inh repeat: recorded beside Arbovirus inh, whose call it bears; inhibition, %; measured here: 10K subset replicate screen; many hits read low in the repeat;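 first of two repeat runs on a subset; 0% = infected and 100% = uninfected wells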
Numbers without * were called inactive; ? = inconclusive; / = no result given. An excerpt, so the mix of outcomes need not match the whole.

SMILES | Mtb bLac sens | YopH inh | Mtb growth | Arbovirus inh | RecA splice inh | others
Cc1cc2cc(C)c(NCCNC(=O)c3ccccc3F)nc2cc1C | 11 | / | 31% | 18 | 0.8
Cc1nnc(SCc2nnc(-c3cccs3)o2)s1 | 17 | / | -3% | 4 | -1.1
O=C(Nc1cccc(-c2nc3ccccc3s2)c1)c1ccc2c(c1)OCO2 | 8 | -32 | -2% | -14 | 4.2
Cc1ccc(Cl)cc1N1CCN(C(=O)c2ccc3nc[nH]c3c2)CC1 | 6 | 7 | 6% | -5 | 11
COc1ccccc1NC(=O)COc1ccc2ccccc2c1 | ? | / | / | / | 7.9
COc1ccc(S(=O)(=O)N2CCCC(C(=O)NCc3cccnc3)C2)cc1 (stereo unspecified) | -7 | / | / | / | 2.8
NS(=O)(=O)c1cccc(NC(=O)CCSc2ccc(Cl)cc2)c1 | ? | -30 | 4% | -2 | 8.0
Cn1c(CN2CCCCC2)nc2cc([N+](=O)[O-])ccc21 | 1 | / | 3% | 0 | 3.4
CO/N=C(/COc1ccc(F)cc1)c1ccc(OC)cc1 | 1 | / | / | / | 4.1
CC(=O)OCC1=C(C(=O)O)N2C(=O)C(NC(=O)CCn3nc(C)c(Cl)c3C)C2SC1 (stereo unspecified) | 4 | / | 1% | 14 | 0.0
N#Cc1ccc(C(=O)OCC(=O)N2CCOCC2)cc1 | -2 | / | / | / | -1.4
COc1cc(Cc2ccc(N)c(OC)c2)ccc1N | -7 | -11 | 5% | -3 | 9.3
O=C(OCC1OC2C(Oc3nc(=O)ccn32)C1O)c1ccccc1 (stereo unspecified) | -11 | -41 | -15% | 4 | 0.0
N/C(=N\OC(=O)Cc1cccs1)c1ccccc1 | 5 | -36 | -6% | 2 | 2.4
CC(=O)OCC1OC(OCc2cn(C[C@H]3CC[C@@H]([C@@H]4CC[C@H](Cn5cc(COC6OC(COC(C)=O)C(OC(C)=O)C(OC(C)=O)C6OC(C)=O)nn5)O4)O3)nn2)C(OC(C)=O)C(OC(C)=O)C1OC(C)=O (stereo partly specified) | -10 | / | / | / | -2.5
O=C(NCc1ccc(Cl)cc1)C1CCC(CNc2c(N3CCOCC3)c(=O)c2=O)CC1 (stereo unspecified) | -6 | / | -3% | / | -2.5
O=C(NNC(=O)c1ccco1)c1cccc(Br)c1 | -7 | / | / | / | -1.4
O=C1OCCN1S(=O)(=O)Nc1ccccc1 | -5 | / | / | / | 1.5
COc1ccc(C(=O)NCCCNC(=O)c2ccc(C)nc2)cc1 | -2 | / | / | / | -1.1
Cc1nc(NS(=O)(=O)c2ccccc2)sc1C(=O)NN | -1 | / | -1% | 1 | -0.3
COc1ccc(OC)c(S(=O)(=O)N2CCc3ccccc32)c1 | 5 | 11 | 5% | -1 | -0.6
O=C(NCCS(=O)(=O)N1CCN(Cc2ccccc2)CC1)c1ccc(F)cc1 | -3 | / | / | / | -0.9
COc1ccc2c(CC(=O)Nc3nccs3)coc2c1 | -1 | / | -2% | -4 | -0.3
CCCCn1c(N)c(N(CCC(C)C)C(=O)c2c(C)noc2C)c(=O)[nH]c1=O | -10 | / | / | / | -2.9
Cc1cccc(C(=O)NC2CCN(C(=S)NCc3ccco3)CC2)c1 | 2 | -6 | -5% | 5 | -2.4

The list goes on; the last 3 above are carried over.
SMILES | Mtb bLac sens | YopH inh | Mtb growth | Arbovirus inh | RecA splice inh | others
COc1ccc2c(CC(=O)Nc3nccs3)coc2c1 | -1 | / | -2% | -4 | -0.3
CCCCn1c(N)c(N(CCC(C)C)C(=O)c2c(C)noc2C)c(=O)[nH]c1=O | -10 | / | / | / | -2.9
Cc1cccc(C(=O)NC2CCN(C(=S)NCc3ccco3)CC2)c1 | 2 | -6 | -5% | 5 | -2.4
C#C[C@]1(O)CC[C@H]2[C@@H]3CCc4cc(O)ccc4[C@H]3CC[C@@]21C | 6 | -30 | -3% | -18 | 4.6
NNc1nc2ccc(F)cc2s1 | 100 | 7 | 0% | 13 | -4.3
COc1ccc(C(=O)N2CCOC2CNC(=O)C(=O)NCc2ccc3c(c2)OCO3)cc1 (stereo unspecified) | -5 | / | 0% | 1 | 0.3
CSc1ccccc1NC(=O)CN(C)C(=O)C1CCN(C(=O)Nc2ccccc2)CC1 | -15 | / | / | / | 0.8
CCc1nc2nc(C)c(NS(=O)(=O)c3ccc(C4CCCCC4)cc3)c(=O)n2[nH]1 | -10 | / | / | / | 0.5
CCCC(=Nc1ccccc1)C1=C(O)C(C(=O)OC)C(C)(C)CC1=O (stereo unspecified) | -1 | -20 | -5% | 7 | 0.7
CCOC(=O)c1c(N)sc2c1CCCC2 | -3 | -28 | -6% | -2 | -2.0
Cc1nn(CC#N)c(=O)n1-c1ccccc1 | -6 | 12 | -9% | 3 | 1.1
O=C(Nc1ccc(N2CCOCC2)cc1)c1cc(-c2ccncc2)nc2ccccc12 | -3 | / | -7% | / | -0.1
O=C(NCc1ccco1)[C@@H]1CCCN1C(=O)c1cccs1 | -6 | -19 | / | -7 | 0.9
Cc1cc(C)c2[nH]c(=O)c(CN(Cc3cccs3)C(=S)NCc3ccco3)cc2c1 | -1 | -37 | 0% | 8 | 1.2
C=CCn1c(SCC(=O)NC2CCCCC2)nnc1C1CCCCC1 | -8 | 4 | -1% | 0 | -6.2
Cc1cc(-c2nn(C)c(=O)c3ccccc23)cc(C)c1O | 19 | / | 2% | / | -1.5
COC(=O)c1ccccc1NC(=O)NCCc1ccccc1OC | 4 | / | 2% | 6 | -0.2
Oc1ccc(/C=N/NC(=S)Nc2cccnc2)cc1 | 8 | / | -3% | / | -3.4
CN1CCN(CC#CCn2c3ccccc3c3ccccc32)CC1 | -18 | -28 | -7% | -28 | 2.0
CC(=O)N1Cc2ccccc2CC1C(=O)N1CCN(c2ccccc2)CC1 (stereo unspecified) | -5 | / | -5% | 2 | 2.4
Fc1ccc(C2=CC(c3ccco3)n3nnnc3N2)cc1 (stereo unspecified) | 2 | / | -8% | / | /
O=C(O)c1cc(S(=O)(=O)N2CCCCCC2)c(Cl)cc1Cl | -3 | -57 | -12% | -3 | -0.3 | Arbovirus inh repeat=0
COc1ccc(C(NC(=O)c2ccco2)c2ccc(OC)c(OC)c2)cc1 (stereo unspecified) | -9 | -21 | 0% | 0 | 1.0 | Arbovirus inh repeat=0
COc1ccc(OC)c(-c2cc(C3CCN(c4ncccc4[N+](=O)[O-])CC3)[nH]n2)c1 | 99 | -40 | -9% | -11 | 12
O=C(NNc1ccccc1F)C1CCC1 | 84 | / | -19% | / | -0.2
NC(=S)N/N=C/c1ccc2c(c1)OCCO2 | 97 | / | 50% | 10 | 1.4
COc1ccc(OC)c(NC(=O)CSc2nnnn2C)c1 | -4 | / | -4% | 2 | -6.1
COc1ccc(C2C(=O)c3ccccc3C2=Nc2ccc(Br)cc2)cc1 (stereo unspecified) | 0 | / | / | / | -0.9

Of the compounds above, five contain an aryl thioether with sulfur outside any ring.
SMILES | Mtb bLac sens | YopH inh | Mtb growth | Arbovirus inh | RecA splice inh | others
Cc1nnc(SCc2nnc(-c3cccs3)o2)s1 | 17 | / | -3% | 4 | -1.1
NS(=O)(=O)c1cccc(NC(=O)CCSc2ccc(Cl)cc2)c1 | ? | -30 | 4% | -2 | 8.0
CSc1ccccc1NC(=O)CN(C)C(=O)C1CCN(C(=O)Nc2ccccc2)CC1 | -15 | / | / | / | 0.8
C=CCn1c(SCC(=O)NC2CCCCC2)nnc1C1CCCCC1 | -8 | 4 | -1% | 0 | -6.2
COc1ccc(OC)c(NC(=O)CSc2nnnn2C)c1 | -4 | / | -4% | 2 | -6.1

(cont.)
SMILES | Mtb bLac sens | YopH inh | Mtb growth | Arbovirus inh | RecA splice inh | others
Cc1ccc(NC(=O)CN(C)C(=O)Cn2cc(C(F)(F)F)cc(Cl)c2=O)cc1 | -5 | -16 | 4% | 0 | 0.2
COC(=O)CCC(=O)OC1(C)C(=O)C2=CN(CCCOC(C)C)C(c3ccc(OC)cc3)=CC2=C(Br)C1=O (stereo unspecified) | 41 | / | 14% | / | -5.7
Cc1nnc(-c2cnn(C)c2N)n1Cc1ccc(Cl)cc1 | -5 | -18 | 3% | 1 | -2.7
O=[N+]([O-])c1cccc2c([As](=O)(O)O)cccc12 | -2 | / | 2% | / | 35*
CCOP(=O)(OCC)C(Cc1ccccc1)NC(C)=O (stereo unspecified) | 4 | / | -16% | / | 1.6
COc1ccc(OC)c(NC(=O)CC2(CC(=O)O)CCCC2)c1 | -2 | / | / | / | 2.3
CCCCn1c(N)c(N(CC(C)C)C(=O)c2oc3ccc(OCC)cc3c2C)c(=O)[nH]c1=O | 4 | / | / | / | 0.4
CC1CCC(NC(=O)Cn2c3c(c(-c4ccccc4Cl)cc2=O)CCC3)CC1 (stereo unspecified) | -5 | -41 | 8% | -22 | 0.0
Cn1c(CC(=O)Nc2cccc(Cl)c2Cl)nnc1SCC(=O)NC1=NCCS1 | 1 | / | / | / | 0.5
CCOC(=O)CC(Nc1nc(N2CCOCC2)nc(N2CCOCC2)n1)c1ccccc1Cl (stereo unspecified) | 69 | -18 | 9% | 0 | 6.0
C=CCNC(=O)c1c(Cl)cccc1Cl | -2 | -14 | 4% | -1 | -0.3 | Arbovirus inh repeat=1
CCN(CCO)C(=O)CC1C(=O)NCCN1Cc1c(F)cccc1Cl (stereo unspecified) | -6 | / | 4% | 2 | -8.9
O=C(C(=O)N1CCCCC1)c1cn(CC(=O)N2CCCCCC2)c2ccccc12 | 9 | / | / | / | 2.2
COC(=O)CC1C(=O)NCCN1C(=O)c1ccc2oc(C(C)C)nc2c1 (stereo unspecified) | 1 | / | / | / | -1.0
COc1c(C)cc(C(=O)C2CCCN(C(=O)c3csc(C)n3)C2)cc1C (stereo unspecified) | 1 | / | / | / | -3.0
Cc1cc(OCC(=O)NC2CC(C)(C)NC(C)(C)C2)c2c(C)cc(=O)oc2c1 | -2 | / | / | / | 5.8
CC(CCc1ccco1)NC(=O)Nc1cccc(F)c1 (stereo unspecified) | 5 | -3 | 2% | 0 | 2.4
CCCCNc1nc2c(c(=O)n(C)c(=O)n2C)n1CCC | -6 | / | 0% | 0 | -1.3
CCc1ccccc1NC(=O)c1ccc(Cn2cc([N+](=O)[O-])cn2)cc1 | 3 | -43 | 2% | -1 | -1.0
CCN(CC)S(=O)(=O)c1ccc(C(=O)NC(=S)N(CCO)Cc2ccccc2)cc1 | -5 | / | / | / | 6.8
COC(=O)COc1ccc(Cl)cc1C1Nc2ccccc2C(=O)N1c1ccc(OC)cc1 (stereo unspecified) | 0 | -32 | -14% | 9 | 5.5
O=C(O)c1cn(Cc2ccccc2Cl)c2ccc(S(=O)(=O)N3CCOCC3)cc2c1=O | -7 | / | -2% | 17 | -1.4
Cc1cc(C)cc(C(=O)N(c2ccccn2)C(C)c2ccco2)c1 (stereo unspecified) | 6 | -25 | -11% | -2 | -0.3
CC(C)COc1ccc(C(=O)Nc2ccc([N+](=O)[O-])cc2)cc1 | -5 | / | -1% | 4 | 0.4
CCCOc1ccc(/C=C/C(=O)NC2CCCCC2)cc1OC | 2 | / | / | / | 0.5
SMILES | Mtb bLac sens | YopH inh | Mtb growth | Arbovirus inh | RecA splice inh | others
CC1CN(CC(=O)Nc2nc3ccccc3s2)CC(C)O1 (stereo unspecified) | -1 | / | / | / | 1.7
O=C(Nc1cccc2ncccc12)c1ccc(OCc2ccccc2)cc1 | -3 | / | 1% | 4 | 4.4
Cn1c(=S)oc2ccccc21 | 4 | / | -12% | / | -1.6
O=C(NCCc1ccccc1)c1c[nH]c2c(F)cccc2c1=O | 5 | / | / | / | 0.4
O=C(OCC(=O)N1CCCC1=O)c1nc(Cl)c(Cl)c(Cl)c1Cl | 0 | / | / | / | -1.9
Cc1csc(CN(C)C(=O)CC2C(=O)NCCN2CC(C)(C)C)n1 (stereo unspecified) | -7 | / | -8% | 4 | -5.7
CN(C)S(=O)(=O)N(Cc1ccc(Br)cc1)c1ccccc1 | 0 | 23 | -7% | -6 | 3.8
COc1cc(/C=C/c2cccc[n+]2C)ccc1OCC(=O)Nc1cccc(Cl)c1 | 0 | / | / | / | 19
Cc1ccc2c(c1)C1CN(C)CCC1N2C(=O)COc1ccccc1F (stereo unspecified) | -6 | / | -4% | / | 1.5
COc1cc(NC(=S)NNC(=O)CC(C)C)c(OC)cc1Cl | -6 | -14 | 10% | -3 | -5.3
CCCCSCCCNC(=O)c1cn(CC)c2ccc(S(=O)(=O)N3CCOCC3)cc2c1=O | 100 | / | / | / | 1.0
Cc1noc(C)c1S(=O)(=O)NCCN1CCN(c2ccccc2)CC1 | -5 | -37 | 4% | 3 | -0.1

Screening results: PubChem BioAssay, several laboratories
